Screening data from PubChem.
Mtb hypoxia rep = PubChem AID 1159583. M. tuberculosis hypoxia-regulated fluorescent reporter, fluorescence. fluorescence inhibition, % (test concentration not listed). actives 0.1% (n = 300,000);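 active = 35 to 45% if threefold the growth effect, above 45% if 1.5-fold the growth effect; inactive = the rest, general growth blockers included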;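 note: wells of about 50 µL received 100 nL stock; 0% = vehicle wells and 100% = reference inhibitor wells; whole bacteria with a GFP reporter of the hypoxia response; strong numbers were not always called active; many hits fall short of the cut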
ugtP null kill = growth inhibition of ugtP-null S. aureus, primary screen, RN4220 ugtP deletion, OD600. 16 h; some inactives read as strong as hits. actives 0.54% (n = 330,000). growth inhibition, % (test concentration not listed);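 active = z-score under -3 and OD600 up to 0.15 on both plates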;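 note: plate controls were untreated wells for no effect and antibiotic for full effect; wells of about 80 µL received 100 nL stock; the first replicate is given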
PrP 5UTR inh = inhibition of PrP 5' UTR reporter expression; cell-based PrP 5' UTR mRNA reporter, plate reader; inhibition, % (no concentration beside the values); actives 0.35% (n = 340,000); AID 488862, 2010;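 active = every replicate at 50% or more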;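 note: 0 = median of the neutral control wells; tested in H4 reporter cells; numbers are from one replicate; inactives centre near -14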
Bead autofluor = counter-screen for toxin protease inhibitors: compound fluorescence. compound autofluorescence counterscreen, microsphere flow cytometry; hits give high values. fluorescence intensity (concentration not given with the values). actives 3.1% (n = 360,000);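 active = at least 3 SD above the mean of all compounds, about 16000 in these data; inconclusive = too few beads counted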;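 note: 100 nL of 1 mM stock went into each well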
BJeLR viability = MLPCN primary cell-based screen for lethality selective to Ras in HRASV12 cells. actives 0.17% (n = 300,000). BJeLR (HRASV12) viability, CellTiter-Glo ATP luminescence, 48 h; reference of the scale not given here. inhibition, % (test concentration not listed). AID 1554, 2009;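 active = replicate mean above 50%; inconclusive = above 50% but judged a plate artefact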;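 note: 50 nL library stock added to about 25 µL; numbers are from one replicate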
Sa RN4220 lethal = growth inhibition of S. aureus RN4220, primary screen, OD600 | AID 1259311, 2017 | inhibition, % (no concentration beside the values) | actives 0.33% (n = 330,000) | 16 h;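 active = z-score of -3 or lower and OD600 up to 0.18 on both plates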;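 note: plate controls were untreated cells for no effect and reference antibiotic for full effect; stock transfer was 100 nL into about 80 µL; one replicate is shown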
Mtb hypoxia rep growth = also measured in Mtb hypoxia rep; calls as there; growth inhibition, %; measured here: M. tuberculosis growth (absorbance);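 0% = vehicle and 100% = reference antibiotic; read after six days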
An asterisk follows results filed as active; ? = inconclusive; / = not tested or not shown; & = joins results of further samples.

The opening 2 records, to show the layout:
SMILES	Mtb hypoxia rep	Mtb hypoxia rep growth	ugtP null kill	PrP 5UTR inh	Bead autofluor	BJeLR viability	Sa RN4220 lethal
CC(=O)OC1CC[C@@]2(C)C(=CCC3C4CCC(C5(C)OCCO5)[C@@]4(C)CCC32)C1 (stereo not given in full)	16	9	5	/	/	/	-3.5
O=C(CCNC(=O)c1ccccc1Cl)Nc1ccc(S(=O)(=O)Nc2ncccn2)cc1	12	13	3	-17	3559	0	13

The list itself, from the first entry:
SMILES	Mtb hypoxia rep	Mtb hypoxia rep growth	ugtP null kill	PrP 5UTR inh	Bead autofluor	BJeLR viability	Sa RN4220 lethal
CC(=O)OC1CC[C@@]2(C)C(=CCC3C4CCC(C5(C)OCCO5)[C@@]4(C)CCC32)C1 (stereo not given in full)	16	9	5	/	/	/	-3.5
O=C(CCNC(=O)c1ccccc1Cl)Nc1ccc(S(=O)(=O)Nc2ncccn2)cc1	12	13	3	-17	3559	0	13
Cc1cc(=O)c(C(=O)O)nn1-c1ccccc1F	16	9	7	-18	5591	-3	1.3
COc1ccc(NC(C)C(=O)NN=Cc2ccc([N+](=O)[O-])s2)cc1 (stereo not given)	43*	11*	22	/	/	/	17
CCN1C(=O)/C(=C2/SC(C)=C(C)N2CC)SC1=S	12	12	0	-24	4231	-2	5.4
O=C(/C=C/c1ccccc1)NC(=S)Nc1ccc(N2CCOCC2)cc1	/	/	76	-25	12008	-10	-3.2
CCC(=O)N1CCCC(C(=O)c2ccc(-c3ccccc3)cc2)C1 (stereo not given)	10	4	4	-20	4254	1	3.9
Cc1nc(C(=O)O)nn1-c1cc(Cl)ccc1Cl	9	3	7	-4	3321	1	-0.3
O=C(c1ccc(Cl)cc1Cl)N1CCC(C(=O)N2CCOCC2)CC1	1	1	0	-30	4081	-12	1.8
O=[N+]([O-])c1ccc(Cc2ccncc2)cc1	14	8	5	-15	3552	4	5.4
Cc1ccc(NC(=O)Nc2ccc3c(c2)nc(C)n3C)cc1	10	10	5	-91	2028	7	3.0
Cc1ccc(S(=O)(=O)N(CC(=O)NCc2ccco2)Cc2ccccc2F)cc1	-3	16	0	-10	2530	6	12
COc1ccc(N(C(=O)c2snc(C(N)=O)c2N)C(C(=O)NC2CCCC2)c2ccc(C)o2)c(OC)c1 (stereo not given)	-7	2	13	-28	4072	2	4.7
NS(=O)(=O)c1ccc(CCNC(=O)NC2(C(F)(F)F)Oc3ccccc3O2)cc1	1	1	11	8	3257	-2	7.9
Cc1ccc(CN2CCNC(=O)C2CC(=O)NC2CCCCCC2)cc1 (stereo not given)	0	11	3	-11	6073	-7	0.5
CC(=O)Oc1cc2c(c3ccccc13)CCC2=O	-1	4	1	-30	3927	/	4.0
S=C(Nc1ccccc1Oc1ccccc1)Nc1cccc(Cl)c1Cl	16	9	-11	-10	2665	-5	4.6
COC(=O)C1=C(c2ccc(F)cc2OCc2ccccc2)CC2CCC1N2C(=O)NCc1ccc([N+](=O)[O-])cc1 (stereo not given)	17	10	4	/	/	/	-9.4
O=C1Nc2cc(Br)ccc2C1(O)c1ccccc1O (stereo not given)	-5	7	11	/	3813	-11	4.0
CCn1cnc2scc(-c3ccc(OC)cc3)c2c1=O	1	0	6	-38	4043	-7	5.5
CN(C(=O)c1cccc(NC(=O)Cc2cccc(NC(=O)C3CCN(C(=O)C4CC4)CC3)c2)c1)C1CC1	-9	5	5	-8	3729	/	3.8
NS(=O)(=O)c1ccc(NC(=O)Nc2cccc3ccccc23)cc1	-6	1	-1	-8	6056	-6	-4.1
COc1ccc(C2=NOC(Cn3nc(-c4ccccc4)cc3C(=O)NCc3cccs3)C2)cc1 (stereo not given)	6	0	7	-16	2782	/	3.4
O=C(Cn1c(=O)n(CC2CCCO2)c(=O)c2ccccc21)c1ccccc1 (stereo not given)	/	/	2	-9	4616	1	-3.4
NC(=NCCc1c[nH]c2ccccc12)NS(=O)(=O)c1ccc2ccccc2c1	7	3	-11	-11	1940	1	2.3
O=[N+]([O-])c1ccccc1-c1cc(-c2cc(Cl)ccc2O)n[nH]1	12	1	6	-46	9300	3	-9.6
Cc1ccc(-c2nn(-c3ccccc3)cc2CN(Cc2ccccc2)C(=O)CCC(=O)O)o1	-1	6	3	-19	10751	0	10
O=C(O)COc1c(Cl)cc(/C=C2\NC(=O)NC2=O)cc1Br	-13	9	9	-4	2671	-13	0.2
Cn1nc(C(=O)Nc2ccc(S(=O)(=O)N3CCOCC3)cc2)c2ccccc2c1=O	0	-6	2	-33	4101	-8	3.7
C/C(=N\NC(=S)NC(C)C)c1ccccc1OC(F)F	/	/	/	-31	3865	-21	/
Cc1ccccc1-c1nc(C#N)c(NCc2ccco2)o1	4	2	1	-6	2678	0	6.3
O=C(NNC(=S)Nc1ccc(F)cc1F)c1ccco1	17	6	-3	-18	?	-5	2.8
CCCC(=O)NC(c1ccc(C)cc1)c1ccc2cccnc2c1O (stereo not given)	/	/	/	30	4330	22	/
COC(=O)c1sccc1NC(=S)N1CCC(C(N)=O)CC1	5	-5	11	-9	4601	-7	3.8
CCN(CC)S(=O)(=O)c1ccc(NC(=O)C(OC)c2ccccc2)cc1 (stereo not given)	0	11	-6	-21	5368	-1	5.4
Cc1cccc(NC(=O)c2ccccc2NC(=O)C(C)(C)C)n1	/	/	8	0	3473	-2	-3.7
CN(C(=O)Nc1ccc(S(=O)(=O)N(C)C)cc1)C1CCCCC1	3	11	-4	-35	3801	1	3.7
O=C(Cc1ccccc1)Nc1ccccc1N1CCOCC1	/	/	-7	-3	2178	5	-0.7
CC(=O)N1CCN(CC(O)COc2ccc(OCc3ccccc3)cc2)CC1 (stereo not given)	6	8	4	-15	9169	5	1.0
FC(F)(F)C1=CC(c2ccc(Cl)cc2)=NCCN1	/	/	2	-6	2664	6	-3.7
O=C(Nc1ccc2c(c1)OCO2)C1CC(=O)N(c2cccc(Cl)c2)C1 (stereo not given)	2	0	0	-11	3734	3	0.3
COCCCn1c2nc3ccccc3nc2c2c(=O)n(Cc3ccc(Cl)cc3)cnc21	/	/	16	-3	3744	1	4.6
Cc1c(NC(=O)CSc2nc(-c3ccco3)cc(C(F)(F)F)n2)c(=O)n(-c2ccccc2)n1C	17	18	-1	-17	3345	-1	-14
Nc1ccc2nc(N3CCOCC3)sc2c1	3	3	0	-53	2994	1	2.9
CC(=O)c1ccc(-c2ccc(C(=O)NCC3CCCO3)o2)cc1 (stereo not given)	9	-3	10	1	5082	4	3.4
COc1cc(C(=O)N2CCN(Cc3ccc4c(c3)OCO4)CC2)cc(OC)c1OC	0	8	8	-16	3878	-20	3.0
CC(=O)OC1(C(C)=O)CCC2C3CC4OC45CC(O)CCC5(C)C3CCC21C (stereo not given)	7	8	9	-4	3197	/	8.7
Cc1cc([N+](=O)[O-])nn1CCCC(=O)Nc1ccc(Cl)cc1Cl	1	10	2	-21	5225	-3	4.1
CC(CC(=O)O)CC(=O)Nc1cc([N+](=O)[O-])ccc1O (stereo not given)	12	1	4	2	2101	-4	4.9
COc1ccc(N2CCN(S(=O)(=O)CCNC(=O)COc3ccccc3OC)CC2)cc1	2	8	1	-7	4586	-4	-0.5
CN(Cc1ccccc1)C(=O)C1CCCN(Cc2cccc(Cl)c2)C1 (stereo not given)	-5	10	11	2	4055&4416	-1	4.6
COc1ccc(/C=N/Nc2c(Cl)cc(Cl)cc2Cl)cc1CN1CCOCC1	/	/	/	-12	2034	-16	/
COc1ccccc1C(=O)N1CCN=C1c1ccccc1	-6	0	1	-15	9394	-8	0.4
Cc1nn(Cc2ccccc2)c(Cl)c1C(=O)O	3	-4	8	-30	2199	11	5.8
CCN(Cc1nc2cc(Cl)ccc2c(=O)[nH]1)C(=O)c1ccc(C)c(NC(=O)c2ccco2)c1	0	-2	3	-11	3856	/	0.8
Cc1nc(SCC(=O)c2c[nH]c3ccccc23)n[nH]1	2	5	-1	-13	2880	-2	3.3
O=C(COC(=O)/C=C/c1ccc(C(F)(F)F)cc1)NCC1CCCCC1	8	7	6	-6	4981	-1	3.1
COc1ccc(-c2csc3ncnc(Oc4cccc5ccc(C)nc45)c23)cc1	-5	-3	4	-14	2036	8	0.4
O=C(Cc1ccccc1Cl)N1CCOCC1	4	-7	10	6	5993	7	3.8
COCC(C)n1c(SCc2cc(C(=O)OC)c(C)o2)nc2ccccc2c1=O (stereo not given)	5	1	12	-6	4001	12	-1.0
Other entries follow:
SMILES	Mtb hypoxia rep	Mtb hypoxia rep growth	ugtP null kill	PrP 5UTR inh	Bead autofluor	BJeLR viability	Sa RN4220 lethal
CCN1CCN(C(=O)CN2C(=O)COc3ccc(S(=O)(=O)N4CCOCC4)cc32)CC1	/	/	/	-13	5291	1	/
COC(=O)c1ccc(CSc2nnc(-c3ccncc3)o2)o1	19	10	-1	-17	4650	0	0.4
COc1ccc(-c2nc(C)c(C(C)=O)n2O)cc1[N+](=O)[O-]	8	5	5	-9	4150	-8	9.7
Cc1c(N2CCCC2)cc2c(c1NC(=O)c1ccccc1Cl)C(C)(C)CC2(C)C	5	11	-4	-16	5274	0	2.4
Cc1ccc2nc(C3CCN(CC(=O)Nc4ccc5c(c4)OCCO5)CC3)[nH]c2c1	5	6	11	-27	23511*	10	5.6
CCCS(=O)(=O)N1CCC(C(=O)NCCCOCC)CC1	6	8	7	-17	2492	-8	6.2
CCC(=O)NNc1nc2c(C)cccc2s1	5	5	16	-15	3241	-1	3.9
C/C(=N\NC(=O)c1cccs1)c1ccc2c(c1)OCO2	/	/	/	-54	3492	6	/
COc1cccc(C=NNC(C)=O)c1OC/C=C/c1ccccc1	10	8	11	/	/	/	-5.0
Cc1ccccc1-c1nc(CS(=O)(=O)CC(=O)NCCCN2CC(C)CC(C)C2)c(C)o1 (stereo not given)	13	2	2	-10	4832	3	0.5
COc1ccccc1N1CCN(C2CCCN(Cc3cccc(O)c3)C2)CC1 (stereo not given)	19	-1	9	-2	/	-8	6.5
Cc1ccc2[nH]ccc(=O)c2c1	-4	6	-4	-8	3905	-1	-2.7

Entries of single compounds as entered above. Values in the order: Mtb hypoxia rep	Mtb hypoxia rep growth	ugtP null kill	PrP 5UTR inh	Bead autofluor	BJeLR viability	Sa RN4220 lethal
COC(=O)c1ccc(CSc2nnc(-c3ccncc3)o2)o1 across the screens: 19	10	-1	-17	4650	0	0.4
C/C(=N\NC(=O)c1cccs1)c1ccc2c(c1)OCO2 across the screens: /	/	/	-54	3492	6	/
Cc1ccccc1-c1nc(CS(=O)(=O)CC(=O)NCCCN2CC(C)CC(C)C2)c(C)o1 (stereo not given) across the screens: 13	2	2	-10	4832	3	0.5
COc1ccc(-c2nc(C)c(C(C)=O)n2O)cc1[N+](=O)[O-] across the screens: 8	5	5	-9	4150	-8	9.7
Cc1c(N2CCCC2)cc2c(c1NC(=O)c1ccccc1Cl)C(C)(C)CC2(C)C across the screens: 5	11	-4	-16	5274	0	2.4

Next entries follow:
SMILES	Mtb hypoxia rep	Mtb hypoxia rep growth	ugtP null kill	PrP 5UTR inh	Bead autofluor	BJeLR viability	Sa RN4220 lethal
CNc1nc2c3ccccc3n(C(C)=O)c2s1	/	/	2	-18	2231	8	0.8
Cc1cc2nnc(SCC(=O)NCc3cccs3)n2c2ccccc12	8	5	15	-18	9538	3	3.8
CN1CCC2(CC1)NC(=O)c1ccccc1N2	9	1	2	/	/	/	0.8
COc1cccc(NC(=O)Cn2c(=O)n(-c3cc(OC)c(OC)c(OC)c3)c(=O)c3ccccc32)c1	/	/	3	-9	4349	2	1.9
O=C1NC(=O)N(c2ccc3c(c2)OCO3)C(=O)/C1=C/c1ccc(N2CCCC2)o1	/	/	/	-18	2830	-5	/
N#C/C(=N\Nc1ccc(Cl)cc1)C(=N)N1CCCCC1	/	/	/	-32	2537	3	/
O=C(O)c1ccc2c(c1)CC(c1ccccc1)OC2=O (stereo not given)	/	/	-1	-1	3904	11	3.3
CCc1ccc(Nc2c([N+](=O)[O-])c(=O)oc3ccccc23)cc1	-13	-8	-7	-39	3581	5	0.3
CCn1c(SCc2nc(CC(=O)Nc3ccccc3OC)no2)nnc1-c1cccs1	2	9	-10	-8	22928*	1	4.0
O=C(COC(=O)CNC(=O)c1ccccc1Cl)NC1CC1	11	-5	9	-9	5015	/	6.3
CCOC(=O)C1=C(c2ccccc2)N(C)C(=O)NC1c1ccc(O)c(OC)c1 (stereo not given)	0	-8	0	-36	7584	-9	-1.6
O=C(COC(=O)C1CCCN1C(=O)c1cccs1)c1ccccc1 (stereo not given)	-4	6	2	-4	3267	-9	13
CSc1ccccc1NC(=O)CN1c2ccccc2CC1C (stereo not given)	-8	-3	-10	-10	4567	4	5.7
